# Ecoli rRNA inh: inhibits bacterial ribosomal RNA function over humanized ribosomes; E. coli WT GFP vs humanized-ribosome RFP mutants, fluorescence, 24 h; stronger effect = lower value; DMSO median 0, no signal -100; GFP signal change (wild-type ribosome), % (concentration not given with the values); hit rate 1.6% among 350,000; AID 720706;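 active means significant combined selectivity score with lowered wild-type GFP, culture density cut under 30%, mutant RFP and density less affected; inactive means any of these conditions unmet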; further: one replicate is shown; some compounds called inactive have numbers as strong as hits
# Ecoli rRNA inh OD600: recorded beside Ecoli rRNA inh, whose call it bears; OD600 change, %; measured here: OD600 growth;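 optical density of the mix in the first replicate; 0 = DMSO median and -100 = no signal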
# Ecoli rRNA inh RFP: also measured in Ecoli rRNA inh; calls as there; RFP signal change, %; measured here: RFP humanized mutant strains;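 first replicate; 0 = DMSO median and -100 = no signal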
# * marks the source's active call; other numbers are inactive results; & = joins results of further samples. A portion of the library, so the mix of outcomes need not match the whole.
SMILES,Ecoli rRNA inh,Ecoli rRNA inh OD600,Ecoli rRNA inh RFP
O=C(C[C@@H]1C=C[C@H](NC(=O)C2CCOCC2)[C@H](CO)O1)Nc1ccc(-c2ccccc2)cc1,-2,-7,0.7
CCCC(=O)Nc1ccc2c(c1)OC[C@H](C)N(Cc1ccc(F)cc1)C[C@H](C)[C@H](OC)CN(C)C2=O,-4,-2,-0.7
C[C@@H]1CN([C@H](C)CO)C(=O)c2cc(C#Cc3ccccc3F)cnc2O[C@H]1CN(C)C(=O)c1ccc2c(c1)OCO2,-6,-14,3.0
COc1ccc2c3c(n(C)c2c1)[C@@H](CO)N(C)CC31CN(S(=O)(=O)c2cccs2)C1,1,-10,-0.4
COc1ccc2c3c(n(C)c2c1)[C@@H](CO)N(CC1CC1)CC31CN(C(=O)Nc2ccccc2)C1,-3,-4,0.1
CC1(C(=O)NS(=O)(=O)C2CC2)CCCN(C(=O)CSc2ccccc2)C1 (stereo unspecified),4,7,4.3
C[C@@H]1CN([C@H](C)CO)C(=O)c2cc(NC(=O)CCCCCC(=O)Nc3ccccc3N)ccc2O[C@@H]1CN(C)C(=O)Nc1ccc2c(c1)OCO2,5,14,-2.4
CN1[C@@H]2CN(C(=O)c3ccc(F)cc3)c3ccccc3[C@@H]2[C@@H]1CO,-2,-10,1.9
CO[C@H](CN(C)Cc1ccc(-c2ccccn2)cc1)[C@H](C)CN(C(=O)Nc1ccc(F)cc1)[C@@H](C)CO,0,0,-1.4
CNC[C@H]1Oc2ccc(NC(=O)NC(C)C)cc2C(=O)N([C@@H](C)CO)C[C@@H]1C,2,7,-0.6

# Brought forward from above: 4 compounds, then new ones.
SMILES,Ecoli rRNA inh,Ecoli rRNA inh OD600,Ecoli rRNA inh RFP
C[C@@H]1CN([C@H](C)CO)C(=O)c2cc(NC(=O)CCCCCC(=O)Nc3ccccc3N)ccc2O[C@@H]1CN(C)C(=O)Nc1ccc2c(c1)OCO2,5,14,-2.4
CN1[C@@H]2CN(C(=O)c3ccc(F)cc3)c3ccccc3[C@@H]2[C@@H]1CO,-2,-10,1.9
CO[C@H](CN(C)Cc1ccc(-c2ccccn2)cc1)[C@H](C)CN(C(=O)Nc1ccc(F)cc1)[C@@H](C)CO,0,0,-1.4
CNC[C@H]1Oc2ccc(NC(=O)NC(C)C)cc2C(=O)N([C@@H](C)CO)C[C@@H]1C,2,7,-0.6
CCCNC(=O)N1[C@H](CO)[C@@H](c2ccccc2)C12CN(CCC(F)(F)F)C2,-3,5,-0.6
COc1ccc(NC(=O)N(C)C[C@H]2Oc3ccc(NS(=O)(=O)c4cccs4)cc3CC(=O)N([C@H](C)CO)C[C@@H]2C)cc1,2,6,-1.6
CN(C)CC(=O)N1[C@H](C#N)[C@H](c2ccc(C#CC3CCCCC3)cc2)[C@@H]1CO,-57,-79,-15
COc1ccc(CNC(=O)[C@@H](Cc2ccccc2)NC(=O)[C@H]2O[C@@H](n3cnc4c(=O)[nH]c(N)nc43)[C@H](O)[C@@H]2O)cc1,23,12,3.0
CN(C)c1ccc(-c2ccnc3c2CC(C)(C(=O)Nc2ccc(Cl)c(C(F)(F)F)c2)O3)cc1 (stereo unspecified),4,13,5.8
CO[C@@H]1CN(C)C(=O)c2ccc(NS(=O)(=O)c3cccc(F)c3)cc2OC[C@H](C)N(C(=O)Cc2cccnc2)C[C@H]1C,-1,-3,1.0
CCCCSCc1nc2nc(Cl)c(Cl)nc2[nH]1,-54,-81,-13
C[C@H]1CN([C@@H](C)CO)C(=O)c2cccc(NC(=O)C3CC3)c2O[C@H]1CN(C)C(=O)NC1CCCCC1,4,3,1.3
CCNC(=O)C[C@H]1CC[C@@H](NC(=O)NC2CCCCC2)[C@H](CO)O1,4,11,-3.0
C[C@H](NC(=O)C[C@H]1C=C[C@H](NC(=O)CN2CCOCC2)[C@@H](CO)O1)c1ccccc1,2,2,2.1

# Taken from the results shown, 2 compounds:
SMILES,Ecoli rRNA inh,Ecoli rRNA inh OD600,Ecoli rRNA inh RFP
CCNC(=O)C[C@H]1CC[C@@H](NC(=O)NC2CCCCC2)[C@H](CO)O1,4,11,-3.0
C[C@H](NC(=O)C[C@H]1C=C[C@H](NC(=O)CN2CCOCC2)[C@@H](CO)O1)c1ccccc1,2,2,2.1

# Continuation.
SMILES,Ecoli rRNA inh,Ecoli rRNA inh OD600,Ecoli rRNA inh RFP
N#C[C@H]1[C@@H](c2ccccc2-c2ccccc2F)[C@H](CO)N1C(=O)C1CCC1,-6,-28,-2.5
CC1(Oc2ccc3ccccc3c2)CCN(Cc2cccn2-c2nccs2)C1 (stereo unspecified),-4,-10,-0.1
C[C@@H]1CN([C@@H](C)CO)C(=O)c2cc(NS(=O)(=O)c3cccs3)ccc2O[C@@H](C)CCCCO[C@@H]1CN(C)C(=O)Nc1ccccc1,2,-8,-2.8
COc1ccc(S(=O)(=O)Nc2ccc3c(c2)C(=O)N([C@@H](C)CO)C[C@@H](C)[C@H](CN(C)C(=O)c2ccccc2)OCCCC[C@H](C)O3)cc1,-1,-4,-0.3
C[C@H](CO)N1C[C@H](C)[C@H](CN(C)Cc2ccccc2)OCCCC[C@H](C)Oc2ccc(NS(=O)(=O)c3ccc(Cl)cc3)cc2C1=O,-12,-55,24
COc1cccc(C(NC(C)=O)c2nc(-c3cccs3)cs2)c1 (stereo unspecified),3,4,-0.7
COc1cccc(C(NC(C)=O)c2nc(-c3ccc4ccccc4c3)cs2)c1 (stereo unspecified),-5,-13,0.4
CN(C)CC#Cc1ccc([C@@H]2[C@@H](CO)N3C(=O)CN(C(=O)c4ccc(F)cc4)C[C@H]23)cc1,6,18,-2.7
CN(C)C(=O)C[C@@H]1C[C@@H]2c3cc(NS(C)(=O)=O)ccc3O[C@@H]2[C@H](CO)O1,4,5,-1.2
COc1cc(Cl)cc(/C=N\NC(=O)c2ccc3c(c2)OCO3)c1O,-23,-29,-9.6
O=C(NCC[C@@H]1CC[C@@H](NC(=O)C2CCOCC2)[C@@H](CO)O1)c1ccc(F)cc1,0,5,1.0
O=C(Nc1ccc(C(F)(F)F)cc1)N[C@@H]1CC[C@H](CCn2cc(C3(O)CCCC3)nn2)O[C@@H]1CO,-28,-66,14
C[C@@H]1CN([C@H](C)CO)S(=O)(=O)c2ccc(Br)cc2O[C@H]1CN(C)C(=O)C1CCCCC1,-10&-6,-26&8,-10&-6.8
Cc1ccc(S(=O)(=O)Nc2ccc3c(c2)CC(=O)N([C@@H](C)CO)C[C@@H](C)[C@@H](CN(C)S(=O)(=O)c2ccc(C)cc2)O3)cc1,-1,-10,1.5
C[C@@H]1CN([C@@H](C)CO)C(=O)c2cc(NS(=O)(=O)c3ccc(F)cc3)ccc2O[C@@H]1CN(C)S(C)(=O)=O,0,0,-3.0
CCCNC(=O)N1C[C@@H](C)[C@@H](OC)CN(C)C(=O)c2cc(NC(=O)CC)ccc2OC[C@@H]1C,2,4,-2.6
CCCNC(=O)C[C@@H]1C[C@H]2c3cc(NC(=O)COC)ccc3O[C@H]2[C@H](CO)O1,4,15,0.1
C[C@H](CO)N1C[C@H](C)[C@H](CN(C)Cc2ccc(C(F)(F)F)cc2)Oc2ccc(NC(=O)Cn3cnnn3)cc2C1=O,3,5,1.0
C[C@@H]1CCCCO[C@H](CN(C)C(=O)CCCN(C)C)[C@@H](C)CN([C@H](C)CO)C(=O)c2cc(NC(=O)Nc3ccccc3)ccc2O1,0,-5,-0.4
C[C@H]1CN([C@@H](C)CO)S(=O)(=O)c2ccc(C3=CCCC3)cc2O[C@@H]1CN(C)S(C)(=O)=O,0,-5,3.6
C[C@@H]1CCCCO[C@H](CN(C)S(=O)(=O)c2cn(C)cn2)[C@@H](C)CN([C@H](C)CO)C(=O)c2cc(NC(=O)Cc3ccccc3)ccc2O1,2,4,-2.3
O=S(=O)(N[C@H]1CC[C@H](CCn2cc(C3(O)CCCC3)nn2)O[C@@H]1CO)c1ccccc1,-5,-4,-5.3
COC(=O)[C@@H](N[C@H](/C=C/c1ccccc1)[C@@H](O)Cc1ccccc1)C(C)C,-24,-52,9.4
C[C@H](CO)N1C[C@H](C)[C@H](CN(C)C)Oc2ccc(NS(=O)(=O)c3ccc(Cl)cc3)cc2C1=O,8,12,2.5
CN(C)C(=O)C[C@@H]1C[C@H]2c3cc(NS(=O)(=O)c4ccc(F)cc4)ccc3O[C@H]2[C@H](CO)O1,1,-4,-0.6
C=CCOC(=O)Nc1nc(CCNC(=O)OCc2ccccc2)c(C(=O)O)s1,3,4,-5.1
O=C(Nc1cccc(Cl)c1)N1C[C@@H]2[C@H](c3ccccc31)[C@H](CO)N2C(=O)c1cccnc1,-20*,-8.1*,1.3*
O=C(CC(F)(F)F)N1C[C@@H]2[C@H](c3ccccc31)[C@H](CO)N2C(=O)C1CC1,1,1,-1.9
O=S1(=O)CC(N2CC=CC2)CN1Cc1ccc(F)cc1 (stereo unspecified),2,7,-0.9
COc1ccc(NC(=O)Nc2ccc3c(c2)CC(=O)N([C@@H](C)CO)C[C@@H](C)[C@@H](CN(C)S(=O)(=O)c2cccs2)O3)cc1,-1,2,-0.6
O=C(C[C@H]1C[C@@H]2c3cc(NC(=O)C4CCOCC4)ccc3O[C@@H]2[C@H](CO)O1)NC1CCCCC1,2,7,-0.2
O=C(CN1CCOCC1)N[C@@H]1CC[C@@H](CCn2cc(C3CCCCC3)nn2)O[C@@H]1CO,3,6,-1.7
CNC(=O)C[C@@H]1CC[C@@H]2[C@@H](COc3ccc(NC(=O)c4cscn4)cc3C(=O)N2C)O1,1,0,-2.6
C[C@H]1CN([C@@H](C)CO)C(=O)Cc2cc(NC(=O)Cc3ccccc3)ccc2O[C@@H]1CN(C)C(=O)Nc1ccc(F)cc1,4,-2,-2.3
C[C@@H]1CN([C@@H](C)CO)C(=O)c2cc(C#Cc3cccc(F)c3)cnc2O[C@H]1CN(C)C(=O)C1CC1,1,3,-0.8
C[C@@H]1CCCCO[C@@H](CN(C)S(=O)(=O)c2ccc(F)cc2)[C@H](C)CN([C@@H](C)CO)C(=O)c2cc(NC(=O)Cc3ccccc3)ccc2O1,1,-8,-1.1
C[C@@H]1CN([C@H](C)CO)C(=O)c2cccc(NC(=O)C3CCCCC3)c2O[C@@H]1CN(C)Cc1ccncc1,2,1,0.2
COc1cccc(-c2cnc(C(O)c3ccc(OC)c(F)c3)[nH]2)c1 (stereo unspecified),5,-4,0.5
C[C@@H]1CN([C@H](C)CO)C(=O)Cc2cc(NC(=O)Nc3cccc4ccccc34)ccc2O[C@@H]1CN(C)S(=O)(=O)c1ccccc1,-1,3,2.8
C[C@@H](O)C#Cc1ccc([C@@H]2[C@H](CO)N3CCCCN(C(=O)c4ccc5c(c4)OCO5)C[C@@H]23)cc1,2,16,-1.1
C[C@@H]1CN([C@H](C)CO)C(=O)Cc2cc(NS(=O)(=O)c3cccs3)ccc2O[C@H]1CN(C)S(=O)(=O)c1ccc(Cl)cc1,-4,-7,2.2
C[C@H](CO)N1C[C@H](C)[C@@H](CN(C)Cc2ccc(C(=O)O)cc2)Oc2ccc(NC(=O)Cc3ccccc3)cc2CC1=O,3,12,0.8
C[C@H](CO)N1C[C@H](C)[C@@H](CN(C)S(=O)(=O)c2ccc(Cl)cc2)Oc2ccc(NC(=O)CCN3CCOCC3)cc2C1=O,-2,-6,-1.3
COCC(=O)NC[C@H]1[C@H](c2ccc(C3=CCCC3)cc2)[C@@H](CO)N1C(=O)C1CC1,-1,-5,0.9
CCCC#Cc1ccc([C@@H]2[C@H]3CN(C(=O)NCCC)CC(=O)N3[C@H]2CO)cc1,-1,-13,-1.1
CCNC(=O)C[C@@H]1C=C[C@H](NS(=O)(=O)c2ccc(C)cc2)[C@H](CO)O1,-4,-3,0.8
C[C@H]1CN([C@@H](C)CO)C(=O)c2cccc(NS(=O)(=O)c3ccccc3)c2O[C@H]1CN(C)C(=O)Nc1ccc(F)cc1,4,8,1.7
CCCNC(=O)C[C@@H]1C[C@@H]2c3cc(NC(=O)CN(C)C)ccc3O[C@@H]2[C@@H](CO)O1,1,-2,-2.7
O=C(CN1CCOCC1)N[C@H]1CC[C@H](CCNC(=O)C2CCCCC2)O[C@@H]1CO,0,0,1.9
CCOC(=O)[C@H]1Nc2ccc(Cl)cc2[C@@H]2[C@H]1C1CC(c3ccccc31)N2C(=O)OCc1ccccc1 (stereo partly specified),13,11,-0.6

# A second format for some results above:
smiles | Ecoli rRNA inh | Ecoli rRNA inh OD600 | Ecoli rRNA inh RFP
COC(=O)[C@@H](N[C@H](/C=C/c1ccccc1)[C@@H](O)Cc1ccccc1)C(C)C | -24 | -52 | 9.4
COc1ccc(NC(=O)N(C)C[C@H]2Oc3ccc(NS(=O)(=O)c4cccs4)cc3CC(=O)N([C@H](C)CO)C[C@@H]2C)cc1 | 2 | 6 | -1.6

# Further records:
SMILES,Ecoli rRNA inh,Ecoli rRNA inh OD600,Ecoli rRNA inh RFP
CCCC#Cc1ccc([C@H]2[C@@H](CO)N3C(=O)CN(C(=O)Nc4ccccc4F)C[C@H]23)cc1,4,-9,-4.4
CCc1nc2c(OCC(=O)C(C)(C)C)cccn2c1N(C)C(=O)c1ccc(C)cc1,11,19,0.4
CCS(=O)(=O)Nc1ccc2c(c1)C(=O)N(C)C[C@@H](OC)[C@H](C)CN(C(=O)C1CC1)[C@@H](C)CO2,2,1,-1.1
CO[C@@H]1CN(C)C(=O)c2cc(NS(C)(=O)=O)ccc2OC[C@@H](C)N(Cc2ccccn2)C[C@H]1C,2,5,-0.1
C[C@H](NC(=O)[C@H]1N[C@H]2c3ccc(C4=CCCCC4)c(=O)n3C[C@H]2[C@@H]1CO)c1ccccc1,-13,-18,1.3
Nc1ncnc2c1ncn2[C@@H]1O[C@H](C(=O)N2CCSC2)[C@@H](O)[C@H]1O,0,-5,-1.3
C[C@@H]1CN([C@@H](C)CO)C(=O)CCCn2cc(nn2)CO[C@H]1CN(C)C(=O)c1ccc2ccn(C)c2c1,2&1,0&1,6.9&0.0

# Screens from PubChem BioAssay.
